# High-throughput results (PubChem BioAssay)
# TRPML1 inh: human mucolipin-1 channel inhibition. AID 624415. 390,000 compounds, 0.02% hits. Q9GZU1. TRPML1-inducible cells, Ca2+ dye fluorescence, FDSS; hits give low values; inhibition of EC80 agonist-evoked calcium signal. activity change, negative = inhibition, % (concentration not given with the values); in the data active means activity change below about -50%; inconclusive means about -30% to -50%; inactive means above about -30%;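 also: stimulus is agonist 54-4 at its EC80 concentration; % is scaled to controls: 0 for no effect and ±100 for the full control effect; the text of the record puts the active cut at -80%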
# Target sequence (Q9GZU1 whole entry, looked up): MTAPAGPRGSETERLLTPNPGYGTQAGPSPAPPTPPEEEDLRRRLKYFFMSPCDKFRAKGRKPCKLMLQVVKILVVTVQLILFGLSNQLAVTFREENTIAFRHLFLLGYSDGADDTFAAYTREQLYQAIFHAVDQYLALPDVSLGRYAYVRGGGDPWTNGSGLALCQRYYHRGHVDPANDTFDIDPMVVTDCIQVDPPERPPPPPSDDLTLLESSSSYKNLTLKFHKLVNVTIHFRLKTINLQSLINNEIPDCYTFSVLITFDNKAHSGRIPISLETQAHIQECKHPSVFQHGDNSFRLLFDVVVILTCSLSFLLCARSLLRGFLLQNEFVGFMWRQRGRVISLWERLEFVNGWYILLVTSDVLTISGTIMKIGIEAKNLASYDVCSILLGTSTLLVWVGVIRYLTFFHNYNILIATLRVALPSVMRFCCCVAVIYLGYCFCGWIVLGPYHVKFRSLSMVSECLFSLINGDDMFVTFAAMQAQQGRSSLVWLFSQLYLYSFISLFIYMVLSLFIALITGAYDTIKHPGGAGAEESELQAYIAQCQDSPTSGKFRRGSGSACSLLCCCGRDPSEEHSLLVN
#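 Tet-induced TRPML1-DL cells loaded with Ca8 no-wash calcium dye were read kinetically on FDSS. Compound addition was followed by EC80 agonist 54-4 (4 uM final); inhibition was read over 110 s.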
# Menin MLL FP FL: displaces fluorescein MLL peptide from human menin. 290,000 tested, under 10 active. AID 1766. FP activity change, % at 61.4 µM. Fluorescence polarization, fluorescein-MLL peptide displacement from menin; inconclusive = falling polarisation curve, or a change in total fluorescence; inactive = total fluorescence flat and polarisation flat or rising; no compound was filed as active; the % refers to the polarisation; negative = inhibition;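 also: % of control where 0% means no effect; inhibitors lower the polarisation; unlabelled MLL peptide was the positive control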
# TRPV1 potentiator: enhances activation of the human vanilloid receptor TRPV1. TRPV1-expressing cells, Fluo-8 calcium influx, capsaicin EC20 potentiation; host cell line not named in the record; control for the full effect not named in the record. AID 540277. Q8NER1. potentiation, % at 8.33 µM. 320,000 compounds, 0.02% hits; active means potentiation above 80%; inconclusive means 30% to 80%; inactive means below 30%; also: 0% is about no effect
#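 Cells expressing TRPV1 were dye-loaded with Fluo-8 and read kinetically: 10 s baseline, 3 min after compound (agonist portion), then 2 min after EC20 capsaicin (allosteric enhancer portion). Calcium-bound dye fluorescence at 480/520 nm.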
# gsp antag: antagonists of gsp mutant (McCune-Albright syndrome); gsp-mutant cells, cAMP HTRF, 30 min; control for the full effect not named in the record; Potency, µM (titrated, usually from 76.9 µM), for the others: top-dose activity change, negative = inhibition, hits mostly inhibitors; 340,000 compounds, 0.4% hits; active = falling curve of any shape with a large fitted effect; inconclusive = falling curve, mostly with a smaller effect; inactive = flat or rising curve; cell line not stated here;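 also: intracellular cAMP measured with PDE inhibitor Ro 20-1724 present during compound exposure; potency is read from the fitted curve at half-maximal effect; % is scaled to controls: 0 for no effect and ±100 for the full control effect; nearly all actives have a fitted effect of over 65% in size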
#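 G418-selected cells were plated in DMEM/10% FBS for 16-24 h at 37C, then treated with compounds plus the PDE inhibitor […] (300 uM solution added) for 30 min at 37C. Intracellular cAMP was measured by HTRF after 30 min lysis at room temperature.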
# ClpP mod: qHTS Assay for Activators of ClpP | purified B. subtilis ClpP, FRET peptide cleavage, 20 min | Potency, µM (highest dose often 57.5 µM), inactives show top-dose activity change, negative = active | 340,000 compounds, 1.9% hits; active = well fitted falling curve with a large enough effect; inconclusive = small, poorly fitted or top-dose-only effect; inactive = no such curve, though single readings can be large or run the other way; also: potency is read from the fitted curve at half-maximal effect; the source files actives as falling curves though it sought activators and does not explain the sign; nearly all actives have a fitted effect of over 65% in size; many hits overshoot -100%
# Target sequence (P80244 whole entry, looked up): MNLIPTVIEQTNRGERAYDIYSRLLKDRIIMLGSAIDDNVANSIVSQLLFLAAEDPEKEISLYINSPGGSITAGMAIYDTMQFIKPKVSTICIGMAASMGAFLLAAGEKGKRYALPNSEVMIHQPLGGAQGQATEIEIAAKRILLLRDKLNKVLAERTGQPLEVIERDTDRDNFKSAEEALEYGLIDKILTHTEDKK
#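 FRET quenching reversal measured ClpP activation: 10 microg/mL B. subtilis ClpP at pH 8 with the FRET-FV decapeptide, read at 430 nm after 320 nm excitation. The 20-min minus 0-min signal was scaled between DMSO/no-enzyme wells and ADEP (5.8 microM final).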
# Sfp PPTase inh: inhibitors of Bacillus subtilis Sfp phosphopantetheinyl transferase. Q9F4F7. Biochemical Sfp PPTase activity, qHTS. Potency, µM, for inactives: max response, negative = inhibition, most hits filed as inhibitors. 310,000 compounds, 3.5% hits. AID 1490; active = well fitted inhibition curve with a large enough effect; inconclusive = small, poorly fitted or top-dose-only effect, or another doubt; inactive = no such curve, though single readings can be large or run the other way;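 also: the enzyme is Sfp with the accession as filed and its product quenches rhodamine fluorescence; potency is read from the fitted curve at half-maximal effect; 0% = enzyme reaction without inhibitor and -100% = no enzyme wells; top concentration of the series not given in the record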
#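 Buffer: 50 mM Hepes-Na pH 7.6, 10 mM MgCl2, 0.01% Nonidet P-40, 0.01% BSA. Enzyme 15 nM, pre-exposed to compound 15 min; substrates then added and fluorescence change tracked over 30 min.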
# gsp agonist: activates gsp, the McCune-Albright syndrome mutation | gsp mutant cells, cAMP HTRF, 30 min; control for the full effect not named in the record | Potency, µM (series often up to 76.9 µM), inactives show at the highest dose activation (cAMP increase), actives largely listed as activators | 340,000 compounds, 0.13% hits | AID 624287; active = well fitted activation curve with a large enough effect; inconclusive = small, poorly fitted or top-dose-only effect, or another doubt; inactive = no such curve, though single readings can be large or run the other way; cell line not stated here;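 also: phosphodiesterase inhibitor Ro 20-1724 added with compounds to block cAMP breakdown; potency is read from the fitted curve at half-maximal effect; nearly all actives have a fitted effect of over 60% in size; about a fifth of the inactives were tested at one dose only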
#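 Cells in DMEM/10% FBS with G418 were pretreated with compounds in DMSO plus […] (300 uM stock) for 30 min at 37C. cAMP was measured by HTRF (cAMP-d2 plus anti-cAMP antibody-K) after 30 min at room temperature.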
# Active calls of the source: *; u = inconclusive; x = no result given; & = joins results of further samples; [ ] = remark or other dose.
SMILES,TRPML1 inh,Menin MLL FP FL,TRPV1 potentiator,gsp antag,ClpP mod,Sfp PPTase inh,gsp agonist
Cc1ccc(N2N=C(c3ccc(Br)cc3)CCC2=O)cc1,16,-3.4,-14,-3%,-0.9%,-8%,9%[15.4 µM]
COc1ccc(Cc2noc(-c3ccccc3)n2)cc1OC,11,-3.4,-6,0%,-0.4%,-10%,-63%[inhibitor]
Cc1csc(SCC(=O)NC(=O)C2CCCCC2)n1,-11,-0.4,0,6%,0.5%,15%,-71%[inhibitor]
COc1ccc(CCNC(=O)CCCn2c(=O)[nH]c3cc(OC)c(OC)cc3c2=O)cc1OC,6,4.5,-15,-15%,u,17%,19%
O=C1[C@@H]2[C@@H]3C[C@@H]([C@H]4ON=C(c5ccc(Cl)cc5Cl)[C@@H]34)[C@@H]2C(=O)N1C1CCCCC1,6,-4.1,12,-22%,1.1%,4%,2%
Cc1ccc(C(=O)NNC(=O)c2ccncc2)cc1S(=O)(=O)N1CCCCC1,-10,x,-6,7%,-1.1%,x,-89%
Cc1ccc(S(=O)(=O)N(CC(=O)N2CCC(C)CC2)c2cccc(C)c2)cc1,4,1.5,-4,-16%,-0.2%,-6%,u
O=C(C=Cc1ccccc1)c1cccs1,u,x,x,-3%,-0.1%,x,u
COCCCn1c(=S)[nH]c2sc3c(c2c1=O)CCCC3,4,-0.3,u,-16%,-0.7%,-24%,u
Cc1ccc(S(=O)(=O)NNC(=O)C2CCCCC2)cc1,7,4.8,0,-1%,x,-10%,2%
CCOC(=O)c1ccccc1NC(=O)c1cccc([N+](=O)[O-])c1,-6,0.1,11,-20%,x,13%,-62%[inhibitor]
COc1cc(/C=C/C(=O)O)cc(S(=O)(=O)Nc2ccc3cn[nH]c3c2)c1OC,-6,x,18,-9%,1.1%,x,12%
COc1ccc(CCNC(=O)C(=O)NCC2OCCN2S(=O)(=O)c2ccc3c(c2)OCCO3)cc1OC (centres undefined),14,x,-5,-1%,1.3%,7%,-23%
CCOC(=O)c1ccc(CNC(=O)C2CCC(=O)N(CCc3ccccc3)C2)o1 (centres undefined),-14,-8.2,0,-5%,x,13%,1%
COc1cccc(C(O)c2cnc(C(C)C)n2C)c1OC (centres undefined),29,1.7,-8,2%,-1.2%,16%,u
CC(=O)c1n[nH]nc1NC(=O)c1ccccc1,6,8.4,-27,u,-2.0%,-30%,-22%
O=C(CSc1nc2[nH]ncc2c(=O)[nH]1)c1ccc(Cl)cc1,x,5.4,-2,x,x,8%,x
Cc1onc(-c2ccccc2)c1CNS(=O)(=O)c1ccccc1,2,3.8,7,-5%,x,18%,-2%[15.4 µM]
Cc1ccc(O)c(C(=O)CC(=O)c2ccccc2Cl)c1,-1,1.7,3,x,x,28%,-24%[15.4 µM]
COc1ccc(CCC(=O)Nc2ccc(C)c([N+](=O)[O-])c2)cc1,1,-4.9,-21,6%,1.2%,u,3%
COc1ccccc1C(=O)NCCC(=O)NN1C(=O)NC2(CCCCC2)C1=O,-9,x,16,11%,-3.4%,x,-5%
CCN(CC)c1ccc(/C=N/O)cc1,13,-0.7,-1,4%,u,18%,0%
CCCN1CCN(C(=O)c2cc3c(s2)-c2ccccc2S(=O)(=O)C3)CC1,x,-0.8,1,x,x,3%,x
CN(c1ccc(C(=O)Nc2ccccc2C(=O)N2CCOCC2)cc1)S(C)(=O)=O,-12,-2.5,-6,2%,-2.5%,20%,3%
Cc1ccc(-c2nc(C)sc2CC(=O)O)cc1,-9,0.1,27,7%,0.6%,-1%,-9%
COc1ccc(-c2csc(C3=C(O)CN(CCCN4CCCC4=O)C3=N)n2)cc1OC,-4,-3.1,4,4%,-2.8%,7%,-17%[15.4 µM]
COc1ccc(N2CC(C(=O)NCc3cccnc3)CC2=O)cc1 (centres undefined),9,4.4,u,2%,1.1%,5%,-12%
COc1ccc(C(=O)COC(=O)c2nc3nccc(C)n3n2)cc1F,3,x,-3,4%,-1.3%,x,u
O=C(Oc1cccc(C(=S)N2CCOCC2)c1)c1ccc([N+](=O)[O-])cc1[N+](=O)[O-],6,-3.5,-4,-5%,-25%,u,-5%[15.4 µM]
Clc1ccc(Cn2nc(-c3ccccc3)nc2-c2ccccc2)cc1,10,2.0,14,-18%,-0.8%,-10%,-5%
Cn1c(SCC(=O)NCC2CCCO2)ncc(C(=O)Nc2ccccc2)c1=O (centres undefined),11,x,-8,-22%,0.9%,x,2%
O=C(NC1=C(NC2CCS(=O)(=O)C2)C(=O)c2ccccc2C1=O)c1ccccc1 (centres undefined),-7,1.0,2,-11%,-0.1%,35µM*,-22%
CCOC(=O)c1c(S(=O)(=O)Nc2ccc(F)cc2C)c(C)n(C)c1C,-2,1.6,13,-5%,-0.2%,-4%,3%
COc1ccc(N2CCN(C(=O)C(=O)c3c[nH]c4ccccc34)CC2)cc1,-27,x,-7,-12%,-1.6%,18%,-12%
Cc1ccc(-c2nnc(SCC(=O)NC3CC3)n2N)cc1,19,-1.6,-4,7%,1.4%,12%,9%
Cn1c(CCN2CCCC2)nc2cc(NS(=O)(=O)c3ccc(Cl)cc3)ccc21,1,-0.5,4,-3%,-3.0%,-2%,7%
O=C(COC(=O)CCS(=O)(=O)c1ccc(Cl)cc1)NC1CCCCC1,0,-2.6,6,5%,-2.4%,9%,2%
COCCN(CCOC)c1nc(-c2ccc([N+](=O)[O-])cc2)nc2ccccc12,x,-2.1,1,-2%,2.9%,-13%,-72%[inhibitor]
Cc1cc(C)n(-c2nc(SCC(=O)N3CCCC3)c3c4c(sc3n2)CCCC4)n1,-15,-0.4,15,-16%,-5.8%,-9%,13%
CNS(=O)(=O)c1cccc(C(=O)OCc2cc(=O)oc3c(C)c(O)ccc23)c1,1,11,11,u,x,1%,-4%[15.4 µM]
CC(OC(=O)c1ccc(Cl)nc1)C(=O)NC1(C#N)CCCCC1 (centres undefined),-10,x,-3,7%,-2.8%,x,-21%
CN(C)S(=O)(=O)N1CCC(Oc2ccc(C(=O)NCc3cnn(C)c3)cc2)CC1,-9,-3.0,-6,-12%,-1.0%,-10%,-2%[15.4 µM]
O=C(O)c1ccc(N/N=C/c2cccc(F)c2)cc1,-3,0.0,4,-6%,-1.7%,-3%,3%[15.4 µM]
O=C(CCNS(=O)(=O)c1ccccc1C(F)(F)F)NCCCN1CCOCC1,-10,x,x,6%,0.8%,x,-7%[15.4 µM]
C#CCn1c(S(=O)(=O)Cc2ccc(C)cc2)nc(-c2ccccc2)c1-c1ccccc1,53,0.6,6,-17%,-12%&-13%,-2%,-9%
CC(C)[C@H](N)c1nnc(SC/C=C/c2ccccc2)o1,-3,5.6,17,-2%,-2.2%,-1%,14%
Cc1ccc(C(=O)CNc2ccc(F)cc2)cc1,-4,2.6,-16,6%,-2.5%,-8%,0%
Cc1cccc(Oc2sc(C(=O)c3ccccc3)c(N)c2C#N)c1C,32,-0.3,-4,-27%,-11%,-18%,-8%
CC(C)(C)N(Cc1ccccc1)C(=O)COC(=O)CNS(=O)(=O)c1ccc2ccccc2c1,-6,x,2,4%,-0.5%,x,-11%
CCn1c(SCC(=O)NC2CCCCC2)nnc1C(C)NC(=O)c1ccccc1F (centres undefined),-3,0.9,-17,3%,x,13%,-4%
CCOC(=O)c1sc(NCCNc2nc(C)c(C(=O)OCC)s2)nc1C,2,4.2,-10,4%,-1.0%,0%,u
S=C(NC1CC1)N1CCCc2ccccc21,16,x,11,18%,-0.2%,0%,15%
O=C(c1ccc(Cn2cc(Br)cn2)o1)n1cccn1,34,-0.3,6,-24%,0.8%,-6%,-4%
Cc1ccc(OS(=O)(=O)c2ccc(N3C(=O)CCC3=O)cc2)cc1,-1,-1.3,-19,-2%,x,8%,5%[15.4 µM]
CCCCn1c(N)c(N(CC(C)C)C(=O)c2cc3ccccc3cc2OC)c(=O)[nH]c1=O,12,x,x,6%,x,x,13%[15.4 µM]
Cc1ccc(NC(=O)CSc2ncc3ccccn23)cc1,-2,3.1,-5,x,x,-20%,-2%[15.4 µM]
Cc1cccc2cc(C3CC(c4ccco4)=NN3S(C)(=O)=O)c(Cl)nc12 (centres undefined),24,13,26,-9%,x,-19%,-8%[15.4 µM]
Cc1cccc(NC(=S)Nc2ccccn2)c1,10,3.0,-13,-5%,x,-1%,3%
CCOc1ccc(-c2csc3ncn(-c4ccc(OC)cc4)c(=O)c23)cc1,0,-1.3,14,-11%,-1.2%,-11%,-1%[15.4 µM]
C=CCOc1ccc(/C=C/C(=O)N2CCCN(S(=O)(=O)c3c(C)noc3C)CC2)cc1,-5,x,-11,-12%,-3.2%,x,-69%[inhibitor]

# Other entries follow:
SMILES,TRPML1 inh,Menin MLL FP FL,TRPV1 potentiator,gsp antag,ClpP mod,Sfp PPTase inh,gsp agonist
C=C1CCN([C@H](C(=O)NCc2ccco2)C(C)C)S(=O)(=O)c2ccccc21,2,0.0,10,5%,0.3%,22%,x
CCOC(=O)N1CCN(S(=O)(=O)c2ccc(C(=O)Nc3nnc(CC)o3)cc2)CC1,4,-3.2,-4,-10%,-0.4%,-9%,-3%[15.4 µM]
CC(C)[C@H](NC(=O)c1ccco1)C(=O)Nc1ccc(OC(F)F)cc1,-1,7.1,-2,-18%,x,16%,-10%
CCOc1ccccc1C(=O)n1nc2nc(C)cc(C)c2c1N,50,3.4,-3,7%,-0.6%,14%,-48%[inhibitor]
COc1ccc(NC2CC(=O)N(c3ccc(C(=O)O)cc3)C2=O)cc1 (centres undefined),-7,1.0,5,-8%,x,14%,-2%
Cc1ccc2cc(C#N)c(N3CCCC3)nc2c1C,-16,2.5,-19,1%,-21%,20µM*,-2%
O=C(Nc1cccc(-c2ccc(F)cc2)c1)C1CCCN(Cc2cccnc2)C1 (centres undefined),-2,-0.4,-10,-12%,1.8%,-4%,-13%[15.4 µM]
O=C(Nc1ccc(N2CCCCCC2)cc1)c1ccccc1Cl,0,-2.8,-11,5%,x,-10%,u
O=C(O)Cc1ccc(O)c(O)c1,-4,10&1.5,17,0%,-1.3%,40µM*,x
